Bioassay records as filed in PubChem BioAssay.
KCNQ2 inh = KCNQ2 potassium channel inhibitors, primary screen, cell-based, CHO-K1, FluxOR thallium flux, B-score (AID 2156). B-score at 10 µM. 20 min; hits give low values; only compounds with negative scores are shown here; some inactives read as strong as hits. Potassium voltage-gated channel subfamily KQT member 2 (Rattus norvegicus), O88943. hit rate 1.1% among 310,000;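 active = fluorescence ratio B-score at most minus 3 library SDs, with starting brightness B-score within 2 library SDs, cut at about -5.5 in these data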
Target sequence (O88943 whole entry, looked up): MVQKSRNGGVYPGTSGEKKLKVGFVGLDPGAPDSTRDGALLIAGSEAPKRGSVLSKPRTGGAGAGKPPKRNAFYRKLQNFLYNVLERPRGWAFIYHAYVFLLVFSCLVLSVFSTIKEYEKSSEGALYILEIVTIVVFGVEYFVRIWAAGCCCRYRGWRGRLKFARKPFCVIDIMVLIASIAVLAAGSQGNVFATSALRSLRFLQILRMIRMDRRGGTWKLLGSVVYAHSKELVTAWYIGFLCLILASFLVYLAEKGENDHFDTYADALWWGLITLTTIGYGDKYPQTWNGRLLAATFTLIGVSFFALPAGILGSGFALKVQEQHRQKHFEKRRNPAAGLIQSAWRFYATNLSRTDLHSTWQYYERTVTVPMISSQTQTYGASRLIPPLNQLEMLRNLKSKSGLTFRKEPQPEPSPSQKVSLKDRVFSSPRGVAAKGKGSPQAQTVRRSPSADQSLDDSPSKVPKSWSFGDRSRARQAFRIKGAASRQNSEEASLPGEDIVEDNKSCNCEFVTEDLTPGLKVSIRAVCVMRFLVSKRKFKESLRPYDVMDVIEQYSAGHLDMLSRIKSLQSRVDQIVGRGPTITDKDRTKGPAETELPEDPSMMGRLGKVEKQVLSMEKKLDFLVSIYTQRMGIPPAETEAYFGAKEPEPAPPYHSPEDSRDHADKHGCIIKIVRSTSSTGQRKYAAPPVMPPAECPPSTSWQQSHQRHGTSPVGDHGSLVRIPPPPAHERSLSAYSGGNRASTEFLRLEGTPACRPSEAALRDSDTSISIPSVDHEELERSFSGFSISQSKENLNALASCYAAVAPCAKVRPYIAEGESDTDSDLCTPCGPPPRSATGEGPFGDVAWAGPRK
KCNQ2 inh baseline = further read-out of KCNQ2 inh, marked with its call; B-score; measured here: initial fluorescence intensity artifact check;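 brightness before thallium and not channel activity; 0 = typical well and far values either way flag optical interference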
Active calls of the source: *; i = inactive. These rows are one share of the data, so the mix of outcomes need not match the whole.

mol,KCNQ2 inh,KCNQ2 inh baseline
Cc1cccc(C(=O)N2CCCC(N3CCN(Cc4ccc5c(c4)OCO5)CC3)C2)n1 (configuration not stated),i,1.02
CC(=O)Nc1ccc(OC(=O)c2c(-c3ccccc3Cl)noc2C)cc1,i,0.28
COc1ccc(-c2cc(C(=O)N3CCN(c4ccc(F)cc4)CC3)no2)cc1OC,i,0.98
O=c1n(Cc2ccc(F)cc2)nc2n1-c1ccccc1SC2,i,-0.34
CCOC(=O)c1c(NC(=O)c2cccs2)sc(CC)c1-c1cccs1,i,0.08
Cc1cc(C(=O)N2CCc3c([nH]c4ccccc34)C2c2cccc(Cl)c2)nn1C (configuration not stated),i,-0.68
CCOC(=O)/C(C#N)=C/c1ccc(N2CCN(C)CC2)cc1,i,2.02
C/C(=N/NC(=O)c1cc2ccccc2cc1O)C1C(=O)c2ccccc2C1=O,i,-1.25
CCc1nnc(NC(=O)CSc2nc(-c3ccc(OC)cc3)ns2)s1,i,-0.01
O=C(COc1ccc(Cl)cc1)NCCNC(=O)c1ccccn1,i,-1.28
CC(C)(C)N1C(=O)c2ccccc2NC(=O)N1Cc1ccccc1,i,0.76
O=C(c1ccc(COc2ccccc2Cl)o1)N1CCN(c2ccccc2)CC1,-6.04*,0.05*
COc1ccc2c(c1O)Cc1ccccc1C2=O,i,-2.56
COc1ccc(CCNc2oc(-c3ccccc3OC)nc2C#N)cc1,i,0.12
NC(=S)Nc1ncc(CCN2CCOCC2)c(-c2ccc(F)cc2)n1,i,0.44
ClCc1nc2ccccc2n1Cc1ccccc1,i,7.91
O=C(Nc1nnc(C2CC2)o1)c1ccc(S(=O)(=O)N2CCc3ccccc3C2)cc1,i,-1.23
CCOC(=O)c1cccc(NC(=O)/C=C/c2ccc3c(c2)OCO3)c1,i,0.14
COc1cc(-c2nnc(-c3ccc(N4CCOCC4)cc3)o2)cc(OC)c1OC,i,-0.43
OCCN1CCN(CC#CCn2c3ccccc3c3ccccc32)CC1,i,-0.74
CCOC(=O)c1sc2cccc(F)c2c1N,i,-0.99
COc1ccc(NC(=O)CCNS(=O)(=O)c2ccc3c(c2)c(=O)n(C)c(=O)n3C)cc1OC,i,-2.32
COc1ccc(-n2nc3c(c2NC(=O)CCl)CSC3)cc1,i,0.14
C#Cc1ccc([C@@H]2C=C(C(=O)NCc3nc4ccccc4[nH]3)O[C@H](OCC)[C@H]2CCCO)cc1,i,0.76
CCOC(=O)c1ncccc1NC(=O)CC(=O)Nc1cccnc1C(=O)OCC,i,0.08
C=C(C)CN(CC)CCC(=O)Nc1ccc(OC)cc1OC,i,0.2
C/C(=N\O)c1ccc(Cl)c(Cl)c1,i,0.43
CCN(C1CCCCC1)S(=O)(=O)c1ccc(S(=O)(=O)NCc2ccncc2)cc1,i,1.32
COc1ccc(CCNC(=O)C2Cc3ccccc3C(=O)O2)cc1 (configuration not stated),i,0.91
CC(C)C(NC(=O)CN1C(=O)c2cccc3cccc1c23)C(C)C,i,0.1

Next section
mol,KCNQ2 inh,KCNQ2 inh baseline
O=C(O)CCC(=O)NNC(=O)COc1ccc2ccccc2c1Br,i,0.89
O=C(O)c1cc(-n2cccc2)ccc1N1CCOCC1,i,-0.11
CCN1CCCCC(=N/O)/C(=N/O)CCCC1,i,2.91
CCCCN1CC[C@H]2C=CC[C@@H](C(=O)Nc3ccc(Cl)c(C(F)(F)F)c3)[C@H]2C1=O,i,2.05
COc1cc(/C=C2\CCc3ccccc3C2=O)cc(OC)c1OC,i,-2.08
CC1CCN(C(=O)C2CCCN(S(C)(=O)=O)C2)CC1 (configuration not stated),i,3.82
CCOC(=O)C(CCSC)NC(=O)CN (configuration not stated),i,-0.67
CCCCSc1nc2sc3c(c2c(=O)[nH]1)CCC3,i,0.38
O=C(CN1C(=O)NC(c2ccccc2)(c2ccccc2)C1=O)c1c[nH]c2ccccc12,i,-1.86
O=[N+]([O-])c1ccc(NS(=O)(=O)c2cccc3cccnc23)cc1,i,1.58
CN(C)CCN=Cc1c(O)n(Cc2ccccc2)c(=O)c2ccccc12,i,-1.75
O=C(N/C=C/c1ccc(Cl)cc1)NCc1ccc(Cl)cc1,i,0.49
Cc1cc(C(=O)Nc2sc3c(c2C#N)CCCCC3)cs1,i,-0.24
CCCCOc1ccc(N(CC(=O)NCc2ccccc2)C(=O)c2csnn2)cc1,i,-0.01
Cc1ccc(C(=O)O)cc1NC(=O)C1=CSCCO1,i,0.14
COc1cccc(Cn2nnc(C(=O)NCc3ccc(F)cc3)c2N)c1,i,-0.03
O=C(C1CC(=O)N(c2ccc(F)cc2)C1)N1CCCCC1 (configuration not stated),i,1.92
C=CCc1c(C)nc(-c2ccccc2)nc1N/N=C/c1ccccc1,i,1.4
Cc1nn(C2CCS(=O)(=O)C2)c(Cl)c1/C=C/C(=O)OCC(=O)Nc1ccccc1OC(F)F (configuration not stated),i,-2.32
CCOC(=O)N1CCC(N(CCN(C)C)C(=S)Nc2cccc(OC)c2)CC1,i,0.56
CCOC(=O)C1=C(c2ccccc2)O/C(=C(/C(=O)OC)C(F)(F)F)S1,i,0.32
CC(C)c1ccc(C(=O)NNC(=O)c2ccncc2)cc1,i,0.9
Cc1ccc(C(=O)NCc2ccco2)cc1S(=O)(=O)Nc1cccc(C)c1C,i,-1.54
COc1cccc(C(=O)N2CCC(C(=O)NCc3ccc(C)cc3)CC2)c1,i,0.27
CCN(CCNCC(O)COCc1ccc(Cl)cc1)c1cccc(C)c1 (configuration not stated),i,0.05
Cc1cc(-c2csc(N)n2)c(C)n1CCc1ccccc1,i,-0.46
CCn1c(-c2cc(-c3ccccc3OC)nc3ccccc23)n[nH]c1=S,-7.18*,0.41*
CC(C)NC(=O)C1CCN(C(=O)c2ccc(-c3ccccc3)cc2)CC1,i,1.13
CCOC(=O)N1CCN(Cc2ccc3c(c2)OCO3)CC1,i,-0.08
CC(C(=O)O)n1c(C(F)(F)F)nc2ccccc21 (configuration not stated),i,0.37

Single records, from the list above.
Results for O=[N+]([O-])c1ccc(NS(=O)(=O)c2cccc3cccnc23)cc1 = KCNQ2 inh: i; KCNQ2 inh baseline: 1.58
Results for CC(C)c1ccc(C(=O)NNC(=O)c2ccncc2)cc1 = KCNQ2 inh: i; KCNQ2 inh baseline: 0.9
Results for O=C(N/C=C/c1ccc(Cl)cc1)NCc1ccc(Cl)cc1 = KCNQ2 inh: i; KCNQ2 inh baseline: 0.49

Next section
mol,KCNQ2 inh,KCNQ2 inh baseline
COc1ccc(-c2cnc3ncnn3c2N)cc1,i,-0.41
CCOC(=O)c1cccc(NC(=O)c2c(NCc3ccccc3)[nH]c(=O)[nH]c2=O)c1,i,0.15
CCCc1nc2ccccc2c2nc(N)nn12,i,-0.01
COc1ccc(C(=O)/C=C/C(=O)N(CC(=O)NC2CCCCC2)Cc2ccccc2)c(O)c1,i,0.22
COc1cc(Nc2cc(C)nc3nc(C)nn23)cc(OC)c1OC,i,-2.15
CCCOC(=O)c1ccc(NC(=O)Oc2ccccc2)cc1,i,-0.56
O=C(Nc1ccccc1N1CCCC1)C1CCN(C(=O)c2ccc(Cl)cc2)CC1,i,0.27
Cc1cccc(OCc2nnc(SCC(=O)NC3CCCCC3)n2C)c1,i,-1.22
Cc1nn(-c2ccccc2)c(C)c1NC(=O)COC(=O)CCCOc1ccccc1,i,-1.05
Cc1ccc(C(=O)NCCc2ccccn2)cc1S(=O)(=O)N1CCOCC1,i,0.41
Cc1ccc(S(=O)(=O)N2CCN(C(=O)c3c(C)nn(-c4ccccc4)c3Cl)CC2)cc1,i,0.17
CCOC(=O)COn1c(=O)c(-c2ccc(OCC)cc2)[n+]([O-])c2ccccc21,i,0.33
COc1ccc(-c2ccc3oc(-c4ccc(OC)cc4)c(C#CC4(O)CCCCC4)c3c2)cc1,i,1.35
CC(=O)Nc1ccc(C(=O)N/N=C/c2cccnc2)cc1,i,-0.97
Cn1c(SCC(=O)c2ccc3c(c2)OCO3)nnc1-c1ccccn1,i,0.95
CCOc1nnc(C)c2c(C)n(-c3cccc(Cl)c3)nc12,i,3.95
Cc1ccc(C(=O)NCCc2sc(C)nc2C)cc1,i,-0.1
CCOC(=O)CNC(=O)CN1CCC(c2nc3ccccc3[nH]2)CC1,i,1.52
O=C(NCc1cccnc1)/C(=C/c1ccc(-c2cccc(C(F)(F)F)c2)o1)NC(=O)c1ccccc1,i,-3.24
O=C(c1ccccc1F)N1CCN(c2ccc([N+](=O)[O-])c3cccnc23)CC1,i,-0.53
COc1cccc(CN2C(=O)C(C)N(C(=O)c3ccccc3)c3ccccc32)c1 (configuration not stated),i,-0.08
COc1ccc(/C=N/Nc2nc(-c3ccc(Cl)cc3)cc(C(F)(F)F)n2)c(OC)c1,i,0.82
Nc1cc(C(F)(F)F)ccc1C(=O)O,i,0.89
CC(C)(C)c1ccc(-c2ncccc2O)cc1,i,0.01
O=C(COC(=O)c1ccc([N+](=O)[O-])cc1)NC1CCCC1,i,0.41
CCOC(=O)c1oc2ccc(S(=O)(=O)n3nc(-c4cc(OC)c(OC)c(OC)c4)cc3N)cc2c1C,i,0.1
CC(C)(C)c1ccc(S(=O)(=O)N2CCCCC2C(=O)NCc2ccccn2)cc1 (configuration not stated),i,1.14
Cn1cccc1/C=N/N1CCN(c2ccccn2)CC1,i,0.65
FC(F)(F)COc1nc(N/N=C/c2cccnc2)nc(N2CCCCC2c2ccccn2)n1 (configuration not stated),i,-0.4
COc1ccc2c(c1)[nH]c1c(Cl)ncnc12,i,-1.01

Other results
mol,KCNQ2 inh,KCNQ2 inh baseline
CCCC(=O)Nn1cnc2c(c1=O)C1(CCCCC1)Cc1ccccc1-2,i,1.2
O=C(CCSc1ccc(Cl)cc1)N1CCCCCC1,i,2.86
CSCc1cc(N(C)c2ccccc2)nc(-c2ccccn2)n1,i,-0.01
CCn1c(C(=O)OC)cc2c1ccn2-c1ccc(F)cc1,i,0.67
CC1CCCC(C)N1C(=O)COC(=O)CNC(=O)c1sc2ccccc2c1Cl (configuration not stated),i,-0.28
O=C(/C=C/c1ccco1)Nc1ccc2nn(-c3ccccc3)nc2c1,i,0.01
CN(C)S(=O)(=O)c1cc(NC(=O)CN2CCCc3ccccc32)ccc1Cl,i,0.6
CCOc1ccc2nc(NCCCNS(=O)(=O)c3ccc(F)cc3)c(C#N)cc2c1,i,-0.8
CC(=O)N(CCC1(C(C)C)CCOC(C)(C)C1)C(C)c1cccs1 (configuration not stated),i,0.13
O=C(CCNC(=O)c1ccccc1Cl)NCCc1ccc(C(F)(F)F)cc1,i,2.17
CCOc1ccc(N(Cc2ccc(OC)cc2)C(=O)c2ccco2)cc1,i,-0.89
COc1ccc(NC(=O)NNC(=O)c2cc(C3CC3)nc3ccccc23)c(OC)c1,i,0.49
N#C/C(=C\c1cccc([N+](=O)[O-])c1)C(=O)NCc1cccnc1,i,-0.34
CC(C)Cn1c(CN2CCN(C(=O)c3ccco3)CC2)nc2c1c(=O)n(C)c(=O)n2C,i,0.05
COc1ccc(OCC(=O)NNC(=O)c2nn(C)c(=O)c3ccccc23)cc1,i,1.07
CCc1ccc(NC(=O)C2CCN(S(=O)(=O)c3cnc[nH]3)CC2)cc1,i,-2.22
O=C(c1cc(-c2cccc(Cl)c2)nc2ccccc12)N1CCCC1,-8.08*,0.08*
Cc1cc(C)n(-c2ccc(Cl)c(Cl)c2)n1,i,-2.89
O=C(Nc1ccnn1C1CCN(Cc2ccc(CO)o2)CC1)c1ccccc1Cl,i,2.34
COc1ccc(CCN2C(=O)C(O)=C(C(=O)c3ccco3)C2c2cccs2)cc1OC (configuration not stated),i,0.09
CN(c1ccccc1)S(=O)(=O)c1nnc(NC(=O)COc2ccccc2F)s1,i,-1.43
O=C(CN1CCC(c2nc3ccccc3[nH]2)CC1)NCc1ccc2c(c1)OCO2,i,-0.96
Cc1ccc(NC(=O)[C@H](Cc2c[nH]c3ccccc23)NC(=O)[C@@H]2Cc3ccccc3CN2)c(C)c1,-6.7*,-0.04*
CCOc1ccc(CC(C(N)=O)C(N)=O)cc1,i,2.74
CC(C)Cn1cc(C(=O)NCC2CCCO2)c2c3ccccc3n(C)c2c1=O (configuration not stated),i,0.3
Cc1ccc(S(=O)(=O)N(CC(=O)NCc2ccco2)c2ccccc2C)cc1,i,-0.01
COCc1nc2ccccc2n1Cc1ccccc1,i,1.89
Cc1cc(C)cc(NC(=O)Nc2ccc(NC(=O)c3ccccc3O)cc2)c1,i,0.96
Cc1ccccc1C=Nc1ccccc1C(N)=O,i,1.34
NNc1nc(-c2ccccc2)c2ccccc2n1,i,-2.27

Following part.
mol,KCNQ2 inh,KCNQ2 inh baseline
CCc1ccccc1NC(=O)CN(c1ccc(OC)cc1OC)S(=O)(=O)c1ccccc1,i,-0.12
CCOC(=O)CNC(=S)N(Cc1cccs1)C1CCCCC1,i,0.27
O=C(Cn1nc(-c2cccc(Cl)c2)ccc1=O)Nc1ccc(C(=O)NC2CC2)cc1,i,-1.83
O=C(COC(=O)c1ccccc1Oc1ccccc1)NCc1ccco1,i,0.44
O=C(O)CCC(=O)Nc1nc2ccccc2s1,i,0.1
Cc1cc(C)cc(NS(=O)(=O)c2ccc3[nH]c(=O)ccc3c2)c1,i,0.13
CNC(=O)N(O)C1N(/N=C/c2cc(Br)ccc2O)C(=S)SC1(C)C (configuration not stated),i,0.55
CCSc1ccc(NC(=O)c2cccnc2)cc1,i,-0.97
